# Assay outcomes from PubChem.
# GIV-Gai inh = inhibitors of GIV peptide binding to Galpha-i3, primary screen, biochemical, fluorescence polarization, FITC-GIV GBA peptide, rat Galphai3; Guanine nucleotide-binding protein G(i) subunit alpha-3 (Rattus norvegicus), P08753; 90 min; stronger effect = lower value; scaled: aluminum fluoride 0%, vehicle 100%; percent of control (FP), % (concentration not given with the values); 210,000 compounds, 0.42% hits; AID 1224905, 2016;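 active = replicate mean at 85% of control or lower, very high polarization wells dropped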;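 also: wells of about 15 µL received 100 nL stock; the first replicate is given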
# Target sequence (P08753 whole entry, looked up): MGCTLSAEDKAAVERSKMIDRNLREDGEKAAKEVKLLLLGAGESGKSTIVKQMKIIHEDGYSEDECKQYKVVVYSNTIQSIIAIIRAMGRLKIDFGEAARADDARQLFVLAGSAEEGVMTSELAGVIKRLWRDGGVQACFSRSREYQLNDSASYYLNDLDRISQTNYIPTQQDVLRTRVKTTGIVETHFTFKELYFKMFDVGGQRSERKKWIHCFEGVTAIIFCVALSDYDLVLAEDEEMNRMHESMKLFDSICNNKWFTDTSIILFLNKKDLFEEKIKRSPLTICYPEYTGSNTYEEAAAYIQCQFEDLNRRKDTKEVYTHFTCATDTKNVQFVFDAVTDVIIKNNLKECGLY
# Sa growth 42C = S. aureus growth inhibition at 42 and 30 °C, primary screen, LtaS inhibitor project, RN4220, two temperatures. OD600, 20 h, 42 °C; stronger effect = lower value. relative growth, % (concentration not given with the values). 170,000 compounds, 0.53% hits. AID 720641, 2013;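 active = growth at 42 °C up to 50% and 20 or more points under that at 30 °C, or under 10% at both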;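 also: 300 nL library stock went into each well; scaled to the means of positive and negative controls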
# HCMV NEC inh = inhibitors of HCMV UL50-UL53 interaction, biochemical, HTRF; HCMV UL50-UL53 nuclear egress complex (human cytomegalovirus); normalized percent inhibition; inhibition, % (no concentration beside the values); 190,000 compounds, 0.15% hits;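 active = both replicates at 50% or more, plus weaker picks with an unusually low signal ratio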;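 also: stock transfer was 100 nL into about 20 µL; 0% = negative control wells and 100% = wells with untagged competitor protein; inactives centre near -12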
# Sa growth 42C second temp = further read-out of Sa growth 42C, marked with its call; relative growth, %; measured here: growth at 30 °C;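 optical density after 20 h as mean of two plates; 100% = untreated growth and lower means inhibition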
# An asterisk follows results filed as active; x = not tested or not shown. This is a random part of the collection; about 0.85% have a hit in one of these screens.
1	Cc1ccc(NC(=O)c2ccc(S(=O)(=O)c3ccccc3)nc2)cc1
2	Cc1ccc(S(=O)(=O)N2CCOCC2)cc1C(=O)OCC(=O)N1CCc2ccccc2C1
3	CCCCN1C(=O)c2c(-n3cccc3)c3ccccc3n2CC1(C)C(=O)NC1CCCC1 (stereo not drawn)
4	CCCS(=O)(=O)N1CCN(C2CCN(C(=O)OCC)CC2)CC1
5	CC(=O)N1N=C(c2c(-c3ccccc3)c3cc(Cl)ccc3[nH]c2=O)CC1c1ccco1 (stereo not drawn)
6	O=S(=O)(c1cccc(Cl)c1Cl)N1CCN(c2ncccn2)CC1
7	OC(CN1CCOCC1)C12CC3CC(CC(C3)C1)C2 (stereo not drawn)
8	N#Cc1c(F)cccc1NC(=O)CSCC(=O)O

compound no.	1	2	3	4	5	6	7	8
GIV-Gai inh	102.5	x	102.2	107.1	104.2	x	x	99.7
Sa growth 42C	x	98.8	x	103.3	94.0	83.8	110.8	76.0
Sa growth 42C second temp	x	91.4	x	86.2	69.6	98.9	96.7	86.7
HCMV NEC inh	6.9	-9.0	-13.7	x	x	2.8	3.3	-30.9

9	Cc1ccc(C)n1-c1ccc(C(=O)N2CCNC(=O)C2)cc1
10	CCC(Sc1nc2cc(OC)c(OC)cc2c(=O)n1Cc1ccco1)C(=O)NCc1ccc(C)cc1 (stereo not drawn)
11	Cc1noc(C)c1CC(=O)Nc1ccc2c(c1)OCCCO2
12	Cc1ccc(CNC(=O)c2ccc(CS(=O)(=O)Cc3ccc(F)cc3)o2)cc1
13	CCN1CCN(C(=O)Nc2ccc(Cl)c(Cl)c2)CC1
14	Cc1cc(OCC(=O)NCC2CCCO2)nc2c1c(C)nn2-c1ccccc1 (stereo not drawn)
15	COc1ccc(-n2nc(C)c3sc(C)nc3c2=O)cc1
16	CC(=O)Nc1ccc(Nc2c(CCC(C)C)c(C)c(C#N)c3nc4ccccc4n23)cc1

compound no.	9	10	11	12	13	14	15	16
GIV-Gai inh	x	101.5	x	106.4	101.2	98.4	107.2	106.7
Sa growth 42C	68.7	103.5	76.1	123.0	95.7	x	95.8	99.6
Sa growth 42C second temp	62.5	79.8	91.7	95.2	101.8	x	92.5	104.3
HCMV NEC inh	-9.7	-18.1	-16.6	x	2.3	-14.5	-39.7	-10.5

17	CN(C)C(=O)CSc1nnc(-c2ccccc2O)n1Cc1ccccc1
18	O=C(c1cccs1)N1CCC2(CC1)OCCO2
19	CCCC(=O)Nc1cccc(NC(=O)c2cccnc2)c1
20	CN(c1ccnc(C(=O)NCCN2CCOCC2)c1)S(=O)(=O)c1ccccc1
21	O=c1c2ccccc2ncn1Cc1noc(/C=C/c2ccccc2Cl)n1
22	COc1ccc(S(=O)(=O)c2ccc(NCCc3c[nH]c4ccc(OC)cc34)nn2)cc1
23	Cc1ccsc1CNS(=O)(=O)c1ccc(F)cc1
24	COc1ccc(S(=O)(=O)NCCc2sc(-c3cccnc3)nc2C)cc1OC

compound no.	17	18	19	20	21	22	23	24
GIV-Gai inh	102.4	101.7	x	103.9	108.3	100.2	100.9	106.4
Sa growth 42C	92.9	96.1	101.0	93.8	x	x	106.7	99.7
Sa growth 42C second temp	96.8	93.3	88.5	87.8	x	x	98.9	86.9
HCMV NEC inh	-3.1	-11.7	7.4	-36.6	5.2	-27.7	-5.1	x

25	Cc1c(C(=O)Nc2ccc(S(=O)(=O)N3CCCCCC3)cc2)oc2ccc(F)cc12
26	COc1ccc(CCNC(=O)CSc2nc3ccccc3nc2N2CCCC2)cc1OC
27	COc1ccc(-c2noc(CSc3nnc(-c4ccncc4)n3-c3ccccc3)n2)cc1
28	O=C(COCC(=O)Nc1nc(-c2ccncc2)cs1)Nc1nc(-c2ccncc2)cs1
29	Cc1ccc(CNC(=O)Cn2c3ncccc3c(=O)n2-c2ccc(C)cc2)cc1
30	Cc1ccc2nc(NC(=O)C(Cc3ccccc3)NC(=O)OCc3ccccc3)sc2c1 (stereo not drawn)
31	Cc1ccc(-c2noc(CCC(=O)Nc3ccc4nc(NS(C)(=O)=O)sc4c3)n2)cc1
32	NNC(=O)CSc1nc2ccccc2o1

compound no.	25	26	27	28	29	30	31	32
GIV-Gai inh	100.5	105.1	105.9	102.3	103.2	x	105.2	97.9
Sa growth 42C	97.0	112.8	95.1	94.9	100.6	119.7	x	96.9
Sa growth 42C second temp	79.5	82.8	81.7	71.2	101.8	84.7	x	98.0
HCMV NEC inh	-10.5	x	-3.6	-21.0	x	-7.7	-9.0	-6.8

33	CC(=O)Nc1ccc(S(=O)(=O)Nc2ncn(Cc3ccc(Cl)cc3)n2)cc1
34	Cc1cccc(OCc2nc(C)c(C(=O)Nc3ccccc3C)s2)c1
35	CN1C(=O)c2ccccc2Sc2ccc(NC(=O)N3CCN(c4ccccc4)CC3)cc21
36	O=C(O)CCC(=O)N1N=C(c2ccc(Br)cc2)CC1c1ccccc1F (stereo not drawn)
37	Brc1ccc2nc[nH]c2c1
38	CCNC(=O)/C=C/c1ccc(C(C)(C)C)cc1
39	CC(C)CCNc1nc2c(c(=O)[nH]c(=O)n2C)n1C(C)C
40	CC(C)(C)C1CCc2oc3ccc(NS(=O)(=O)c4cc(Cl)ccc4Cl)cc3c2C1 (stereo not drawn)

compound no.	33	34	35	36	37	38	39	40
GIV-Gai inh	98.0	104.3	104.7	111.1	100.5	102.8	99.0	107.8
Sa growth 42C	x	x	93.3	x	114.6	103.8	90.5	100.0
Sa growth 42C second temp	x	x	96.3	x	104.9	93.1	87.3	104.4
HCMV NEC inh	-15.6	-3.2	8.9	-36.5	-2.5	-21.2	-20.9	13.5

# Profiles, quoted from the list. Screens in order: GIV-Gai inh | Sa growth 42C | Sa growth 42C second temp | HCMV NEC inh
# Entry for CN1C(=O)c2ccccc2Sc2ccc(NC(=O)N3CCN(c4ccccc4)CC3)cc21 = 104.7 | 93.3 | 96.3 | 8.9
# Entry for CC(C)(C)C1CCc2oc3ccc(NS(=O)(=O)c4cc(Cl)ccc4Cl)cc3c2C1 (stereo not drawn) = 107.8 | 100.0 | 104.4 | 13.5
# Entry for O=C(O)CCC(=O)N1N=C(c2ccc(Br)cc2)CC1c1ccccc1F (stereo not drawn) = 111.1 | x | x | -36.5
# Entry for CC(=O)Nc1ccc(S(=O)(=O)Nc2ncn(Cc3ccc(Cl)cc3)n2)cc1 = 98.0 | x | x | -15.6

# Back to the main list; the 4 compounds before the break are reprinted first.
37	Brc1ccc2nc[nH]c2c1
38	CCNC(=O)/C=C/c1ccc(C(C)(C)C)cc1
39	CC(C)CCNc1nc2c(c(=O)[nH]c(=O)n2C)n1C(C)C
40	CC(C)(C)C1CCc2oc3ccc(NS(=O)(=O)c4cc(Cl)ccc4Cl)cc3c2C1 (stereo not drawn)
41	COC(=O)c1ccc2c(c1)sc(=NC(=O)c1ccc(S(=O)(=O)N3CCCC3)cc1)n2C
42	COCC(C)n1c(C)cc(C(=O)CSC2=N/C(=C\c3ccco3)C(=O)N2c2ccc(OC)c(Cl)c2)c1C (stereo not drawn)
43	COc1ccc(CNC(=O)c2ccc(N3CCCC3)c(NC(=O)NCC3CCCO3)c2)cc1 (stereo not drawn)
44	N#CC(Cc1ccccc1)Sc1nnc(-c2ccco2)n1-c1ccccc1 (stereo not drawn)
45	COC(=O)c1cc(NC(=O)Cn2ncc3c([nH]c4ccccc43)c2=O)cc(C(=O)OC)c1
46	Cn1c(=O)c(-c2noc(CCC(=O)Nc3ccc(F)cc3Cl)n2)nn(-c2ccc(F)cc2)c1=O
47	O=C(CSc1nc2ccsc2c(=O)n1-c1ccc(Br)cc1)NCc1ccc(Cl)cc1
48	COC(=O)c1ccc(C(=O)OC)c(NC(=O)c2cc(-c3ccccc3)nc3ccccc23)c1

compound no.	37	38	39	40	41	42	43	44	45	46	47	48
GIV-Gai inh	100.5	102.8	99.0	107.8	103.2	x	110.5	x	102.0	110.6	105.9	100.9
Sa growth 42C	114.6	103.8	90.5	100.0	95.6	95.4	x	97.5	106.1	x	113.2	x
Sa growth 42C second temp	104.9	93.1	87.3	104.4	69.4	98.5	x	83.1	93.7	x	84.5	x
HCMV NEC inh	-2.5	-21.2	-20.9	13.5	-31.6	-6.1	-2.7	-34.6	x	-59.9	x	-30.1

49	CC(=O)N[C@H]1[C@H](Oc2ccccc2)O[C@@H]2COC(c3ccccc3)O[C@H]2[C@@H]1O (stereo partly drawn)
50	Cc1cccc(Cn2c(SCc3ccc(C(=O)NCCN4CCCC4)cc3)nc3ccncc32)c1
51	CCC(Cc1ccccc1)NC(=O)CCS(=O)(=O)c1cc2c(cc1Cl)NC(=O)CO2 (stereo not drawn)
52	COC(=O)c1ccccc1NC(=O)c1cc(CN2CCCC2)on1

compound no.	49	50	51	52
GIV-Gai inh	104.2	102.4	105.6	102.8
Sa growth 42C	97.4	104.5	127.5	103.6
Sa growth 42C second temp	90.1	80.5	84.7	92.6
HCMV NEC inh	-8.5	x	x	x
